Compound activity deposited in PubChem by Emory University Molecular Libraries Screening Center.
Measles inh: inhibitors of measles virus growth in infected cells; infected Vero cells, GFP fluorescence, 64 h; active compounds read low; z-score (no concentration beside the values); 0.1% of 33,000 active;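 active means z-score under -3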;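 further: score is relative to mean and SD of the compound wells of a plate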
An asterisk follows results filed as active. Not all compounds are listed, so the mix of outcomes need not match the whole.

SMILES	Measles inh
Nc1nnc(CCSc2ccc(Br)cc2)s1	-0.1
Cc1ccc([N+](=O)[O-])c(NC(=O)c2ccc([N+](=O)[O-])cc2)c1	-0.33
Cc1cccc(OCc2n[nH]c(=S)n2C2CCCCC2)c1	-0.57
Cc1ccc(-n2nc3c(c2NC(=O)c2ccc(Cl)cc2)CS(=O)(=O)C3)c(C)c1	-1.2
Cn1c(=O)c2c(nc3n(CC45CC6CC(CC(C6)C4)C5)c(-c4ccc(Cl)cc4)cn23)n(C)c1=O	0.28
Cc1ccc(S(=O)(=O)NC(C)(C)CC(C)(C)C)cc1[N+](=O)[O-]	-0.36
COc1nn(-c2nc(-c3cccs3)cc(C(F)(F)F)n2)cc1[N+](=O)[O-]	-1.6
Cn1c(=O)c2c3c(sc2n2c(SCC(=O)c4ccc(Br)cc4)nnc12)CCC3	-0.09
CC1C(=O)C(C)C(c2ccccc2Cl)NC1c1ccccc1Cl (configuration not stated)	-0.62
O=C(O)c1ccc(N2C(=O)C3C4C=CC(C4)C3C2=O)cc1 (configuration not stated)	0.84
CCOc1cccc2cc(C(=O)Nc3nccs3)c(=Nc3ccccc3)oc12	-0.19
CC(=O)NS(=O)(=O)c1ccc(NC(=O)C2CCCCC2C(=O)O)cc1 (configuration not stated)	-0.04
COc1cc2c(cc1OC)C(COc1ccc([N+](=O)[O-])cc1)N(C(=O)c1ccc(Br)o1)CC2 (configuration not stated)	-0.36
COc1ccc(N2C(=O)C3ON(c4ccc(Cl)cc4)C(c4ccc(F)cc4)C3C2=O)cc1 (configuration not stated)	0.61
CC(C)CCNC(=O)c1ccc(CS(=O)(=O)Cc2ccccc2F)o1	-0.22
O=C1c2cccc3cccc(c23)C(=O)N1CCN1CCCCC1	-0.04
O=C(C1CCN(S(=O)(=O)c2cccnc2)CC1)N1CCN(c2cccc(Cl)c2)CC1	-0.04
CCOC(=O)CN1CC23C=CC(O2)C(C(=O)N2CCN(c4ccc(F)cc4)CC2)C3C1=O (configuration not stated)	0.76
COc1ccc(-n2nc(C(=O)NCC(=O)Nc3ccc(F)cc3)c3ccccc3c2=O)cc1	1.6
O=C(NCc1ccccc1F)c1c(O)c2cccc3c2n(c1=O)CC3	2
CCOc1cccc(-c2nnc(-c3ccc4c(c3)OCO4)o2)c1	-1.7
COc1ccc(C2C(=O)N(CCc3ccccc3)CC(=O)N2CCC2=CCCCC2)cc1 (configuration not stated)	-1.4
Cc1ccc(NC(=O)c2ccc(S(=O)(=O)N(C)C)cc2)c(C)c1	1
CC(=O)Nc1ccc(N=Cc2ccc(C)cc2)cc1	-0.08
COC(=O)c1cnn2cccnc12	-0.03
O=C(CC1N=C2c3ccccc3N=C(SCc3ccc(F)cc3)N2C1=O)NCc1ccco1 (configuration not stated)	0.49
CCOC(=O)CSc1nc2c(sc3cccc(F)c32)c(=O)n1-c1ccc(C)cc1	-1
C#CCN1C(=O)C(O)(c2c(C)[nH]c3ccccc23)c2cc(Br)ccc21 (configuration not stated)	0.27
CC1Cc2nc(SCC(=O)NCc3ccccc3)n(C)c(=O)c2S1 (configuration not stated)	0.56
Cc1cccc(NC(=O)c2cc(S(=O)(=O)N3CCCCC3C)ccc2F)c1C (configuration not stated)	-0.01
COc1ccc(C2=CC(c3ccc(OC)cc3OC)n3nnnc3N2)cc1 (configuration not stated)	-0.47
CCN(CC)c1ccc2cc(C(=O)Nc3cccc(Cl)c3)c(=O)oc2c1	0.88
Cc1ccc(CCNC(=O)c2ccc(CS(=O)(=O)Cc3cccc(C)c3)o2)cc1	1.1
Cn1c(=NC(=O)c2cc(Cl)sc2Cl)sc2cc(F)ccc21	-0.45
c1ccc(-c2cnnc(N3CCCC3)n2)cc1	0.21
CCOC(=O)c1c(NC(=O)c2cccc(Cl)c2)sc(C)c1C	0.16
CCc1c(C#N)c(N)nc(SC)c1C#N	0.43
CC(C)(C)n1nc2c(c1NC(=O)c1ccccc1Br)CS(=O)(=O)C2	-2.4
COc1cc(OC)c(OC)cc1C=NCC1OCCc2ccccc21 (configuration not stated)	0.88
Cc1nn(-c2ccccc2)c(OC(=O)c2cccc(Br)c2)c1S(=O)(=O)c1ccccc1	-0.19

Reprinted from the part before: 7 entries, followed by the next part.
SMILES	Measles inh
Cn1c(=NC(=O)c2cc(Cl)sc2Cl)sc2cc(F)ccc21	-0.45
c1ccc(-c2cnnc(N3CCCC3)n2)cc1	0.21
CCOC(=O)c1c(NC(=O)c2cccc(Cl)c2)sc(C)c1C	0.16
CCc1c(C#N)c(N)nc(SC)c1C#N	0.43
CC(C)(C)n1nc2c(c1NC(=O)c1ccccc1Br)CS(=O)(=O)C2	-2.4
COc1cc(OC)c(OC)cc1C=NCC1OCCc2ccccc21 (configuration not stated)	0.88
Cc1nn(-c2ccccc2)c(OC(=O)c2cccc(Br)c2)c1S(=O)(=O)c1ccccc1	-0.19
COc1ccc(-n2nc3c(c2NC(=O)c2ccccc2I)CS(=O)(=O)C3)cc1	-0.79
COC(=O)C1=C(C)NC2=C(C(=O)CC(C)(C)C2)C1c1cccs1 (configuration not stated)	-0.46
CCOC(=O)c1sc2nc(CC(=O)OC)nc(NC3CCCCCC3)c2c1C	0.89
COc1cc(C2C(C(=O)OCCc3ccccc3)=C(C)NC3=C2C(=O)CC(c2ccccc2)C3)ccc1O (configuration not stated)	-0.75
CCc1cccc2c1NC(c1ccc(OC)c([N+](=O)[O-])c1)C1CC=CC21 (configuration not stated)	-0.74
CCOC(=O)C1=C(C)NC2=C(C(=O)CC(c3ccc(OC)c(OC)c3)C2)C1c1ccccc1OC(C)C (configuration not stated)	-0.72
Cc1cccc(C)c1NC(=O)CN(c1cccc(C(F)(F)F)c1)S(=O)(=O)c1ccccc1	1.1
COC(=O)CS(=O)(=O)c1cccc2nsnc12	0.72
O=C(Nc1ccccc1)N(Cc1c[nH]c2ccccc12)C1CCCC1	-0.71
COc1cc(OC)cc(-n2c(=O)c3sccc3n(CC(N)=O)c2=O)c1	-0.06
CSc1oc(-c2ccccc2)nc1S(=O)(=O)c1ccc(Br)cc1	-0.55
CCOc1ccc(-n2c(SCc3ccccc3C)nc3c(c2=O)SCC3)cc1	0.43
COc1ccc2nc3oc(C(=O)N4CCN(C(=O)c5ccco5)CC4)cc3cc2c1	-0.35
C=CCn1c(SCC(=O)NCc2cccnc2)nc2sc3c(c2c1=O)CCCC3	-0.34
Cc1cc(C)cc(OCC(=O)Nc2ccc(CN3CCOCC3)cc2)c1	-0.44
CN(C)CCNC(=O)C1(O)c2ccccc2NC(=O)N1c1ccc(Cl)cc1 (configuration not stated)	0.94
COC(=O)c1cnn2c(C)c(Cc3c(C)cc(C)cc3C)c(C)nc12	1.1
Cc1ccccc1Cn1c(CCCNC(=O)c2ccccc2)nc2ccccc21	-0.24
CC1CC(C)(C)NC(=S)N1CCC(=O)N1c2ccccc2CC1C (configuration not stated)	0.23
COc1ccc(C2CC(C(F)(F)F)n3nc(C(=O)Nc4cccc(Cl)c4)c(Cl)c3N2)cc1OC (configuration not stated)	-0.8
O=C(CNS(=O)(=O)c1ccc([N+](=O)[O-])cc1)OCCCl	0.77
CCN1C(=O)CSc2ccc(C(=O)NCc3ccccc3Cl)cc21	-0.54
COCc1c(C(=O)OC)nnn1-c1ccc(C(F)(F)F)cc1[N+](=O)[O-]	1.1
CC(=O)NC(c1cccc([N+](=O)[O-])c1)c1ccc2cccnc2c1O (configuration not stated)	-0.21
Cc1csc2nc(CCN3C(=O)c4ccccc4C3=O)cn12	-0.62
CCCCCn1c(-c2cccs2)nc2ccccc21	0.65
CC(C)C1C(c2ccccc2)NC(c2ccccc2)CC1(C)O (configuration not stated)	-0.26
O=c1nc2n(-c3ccc4ccccc4c3)c3cccc(Cl)c3cc-2c(=O)[nH]1	-0.9
Cc1ccc(S(=O)(=O)N2CCN(c3ccc([N+](=O)[O-])c(NCc4ccc(Cl)cc4)c3)CC2)cc1	-0.48
COc1cc([N+](=O)[O-])cc(C=Nc2cc(-c3nc4cc(C)ccc4o3)ccc2Br)c1O	0.45
COC(=O)c1cc(NC(=O)c2cc3nc(-c4ccc(Cl)cc4)cc(C(F)(F)F)n3n2)cc(C(=O)OC)c1	-2.2
Cc1ccc2ccc(C(Nc3ccccn3)c3ccc(C(C)C)cc3)c(O)c2n1 (configuration not stated)	-0.08
CC(=O)Nc1c(O)n(C)c2ccccc12	2.3
CC(=O)c1ccc(N=Cc2c(O)cc(C)c(Cl)c2C)cc1	-0.59
CCOC(=O)Cc1c(-[n+]2ccccc2)[nH]c2ccccc12	0.3
CC1(c2ccccc2)CC(C)(C)N(S(=O)(=O)c2ccc(Cl)cc2)c2ccccc21 (configuration not stated)	0.35
COc1ccccc1C(=O)NCCn1cc(SCc2ccccc2)c2ccccc21	0.41
O=C(CSc1ncccn1)Nc1ccc(Oc2ccccc2)cc1	0.29
Cn1c(=O)c2c(nc(SCc3ccccc3)n2Cc2ccc(Cl)cc2)n(C)c1=O	-0.23
CCOc1cccc2cc(C(=O)NC(C)=O)c(=Nc3ccc(F)cc3)oc12	0.04
COc1ccc(OC)c(N2C(=O)C3C4c5ccccc5C(C(=O)O)(c5ccccc54)C3C2=O)c1 (configuration not stated)	-0.36
O=C(Cc1c(C(=O)O)[nH]c2ccccc12)NCCC1=CCCCC1	1.6
Cc1cccc(-n2nc3c(c2NC(=O)C24CC5CC(CC(C5)C2)C4)CS(=O)(=O)C3)c1C	-0.86
CCN(CC)C(=O)CSc1nnc(-c2ccccc2)o1	0.02
CCOc1ccc(NC(=O)c2cn(C)c(=O)c3c2c2ccccc2n3C)cc1	0.64
O=C(Cn1c2ccccc2c(=O)c2ccccc21)Nc1ccc(Oc2ccc3c(c2)C(=O)N(Cc2ccco2)C3=O)cc1	0.7
COC(=O)COc1ccc2c(c1)C(=O)c1cc(OCC(=O)OC)ccc1-2	1.5
CCOc1ccc2c(c1)SC1=NS(=O)(=O)CCN12	-1.2
NS(=O)(=O)c1ccc(CCNC(=O)Nc2ccc(Cl)cc2)cc1	0
CCC1Sc2sc(=S)sc2SC(CC)C1=O (configuration not stated)	-0.81

The list goes on:
SMILES	Measles inh
Cn1cc(SCc2ccc(C(F)(F)F)cc2)c2ccccc21	0.31
COc1cc2c(cc1OC)C(C(=O)NCCCN1CCC(C)CC1)C(c1cccnc1)N(C)C2=O (configuration not stated)	1.8
CCC1=NN(C(=O)c2cccc([N+](=O)[O-])c2)C(O)(c2ccc(Cl)cc2)C1 (configuration not stated)	-0.4
COc1cccc(NC(=O)CNC(=O)Cn2ccc3ccccc3c2=O)c1	-0.59
O=c1oc2ccc(Br)cc2cc1-c1nc2sc3c(c2c(=O)[nH]1)CCCC3	0.32
CSc1cccc(N2C(=O)NC3CC2(C)Oc2ccc(Br)cc23)c1 (configuration not stated)	-1.1
CC(C)CCNC(=O)c1coc2nc3ccccc3nc12	0.47
Brc1ccc(C2C=C(c3ccc(I)cc3)Nc3ncnn32)cc1 (configuration not stated)	-0.21
Cc1ccc(C)c(Cc2c(C)nc3nc(SCC(=O)NC4CCCCC4)nn3c2C)c1	-0.17
CC(=O)N1c2ccccc2N=C(c2ccccc2)CC1c1ccccc1 (configuration not stated)	0.54
CCn1c(=NC(=O)c2ccc(S(=O)(=O)N3CCCC(C)C3)cc2)sc2ccccc21 (configuration not stated)	1.1
Clc1ccccc1COc1ccc(Br)cc1	-0.97
CC1(NC(=O)NC2(C)CCS(=O)(=O)C2)CCS(=O)(=O)C1 (configuration not stated)	-0.91
CC(=O)c1cccc(NC(=O)c2nn3c(C(F)(F)F)c4c(nc3c2Cl)-c2ccccc2CC4)c1	-1
CCOC(=O)c1c(NC(=O)C(C)C)sc(C(C)=O)c1C	-1.1
O=C(CSc1nc2ccc(NC(=O)c3ccccc3)cc2s1)Nc1ccc(Br)cc1	-2.3
CC(C)CC(=O)N1CC(=O)Nc2ccc(F)cc2C1c1ccc(F)cc1 (configuration not stated)	-0.48
COc1ccc(CCC(=O)Nc2ccc(-c3noc(-c4ccccc4Br)n3)cc2)cc1	-1.7
COc1cc(-n2nc(-c3ccccc3)cc2-c2ccccc2)ncn1	-0.19
Cc1ccnc(NS(=O)(=O)c2ccc(NC(=O)C34CC5CC(CC(C5)C3)C4)cc2)n1	-0.16
O=C(NCc1cccc(C(F)(F)F)c1)c1cc([N+](=O)[O-])nn1Cc1ccccc1	0.37
CCS(=O)(=O)N1CCCC(C(=O)NC(C)c2ccccc2)C1 (configuration not stated)	-0.87
CCN(CC)C(=O)c1cc2c(n(-c3ccc(OC)cc3)c1=O)CC(C)(C)CC2=O	-1.6
CCN(CC)S(=O)(=O)c1ccc(C(=O)NCCn2c(C)cc3ccccc32)cc1	-1.5
CCc1ccccc1N(CC)C(=O)c1cn(C)c(=O)c2cc(OC)c(OC)cc12	-0.53
CCC(CC)C(=O)Nc1c(-c2ccc(OC)cc2)nc2cc(C)ccn12	0.13
Cc1nc2c(C(=O)NC3CCCCC3)cnn2c(C)c1Cc1ccc(F)cc1	0.3
O=C1c2cc([N+](=O)[O-])cc3cc([N+](=O)[O-])cc(c23)C(=O)N1c1ccc(S(=O)(=O)NCc2ccccc2)cc1	0.66
Cc1cc(C(O)(C(F)(F)F)C(F)(F)F)cc(C)c1O	-0.47
Cc1ccc([N+](=O)[O-])cc1NC(=O)c1cccc([N+](=O)[O-])c1	-0.22
CC(C)OC(=O)c1c(NC(=O)COc2ccc(Cl)cc2)sc2c1CCCC2	-0.56
COc1ccc(OC)c(-n2c(=S)[nH]c3cc(C(=O)Nc4ccc5c(c4)CCC5)ccc3c2=O)c1	1.9

Shown comma-delimited: 6 of the compounds above
molecule,Measles inh
CCC(CC)C(=O)Nc1c(-c2ccc(OC)cc2)nc2cc(C)ccn12,0.13
Cc1nc2c(C(=O)NC3CCCCC3)cnn2c(C)c1Cc1ccc(F)cc1,0.3
O=C1c2cc([N+](=O)[O-])cc3cc([N+](=O)[O-])cc(c23)C(=O)N1c1ccc(S(=O)(=O)NCc2ccccc2)cc1,0.66
Cc1cc(C(O)(C(F)(F)F)C(F)(F)F)cc(C)c1O,-0.47
Cc1ccc([N+](=O)[O-])cc1NC(=O)c1cccc([N+](=O)[O-])c1,-0.22
CC(C)OC(=O)c1c(NC(=O)COc2ccc(Cl)cc2)sc2c1CCCC2,-0.56
